gsp agonist: gsp mutant agonism; 0.13% of 340,000 active; Potency, µM (highest dose often 76.9 µM), without a hit: at the highest dose activation (cAMP increase), usual class: activators; gsp mutant cells, cAMP HTRF, 30 min; control for the full effect not named in the record; AID 624287; active = well fitted activation curve with a large enough effect; inconclusive = small, poorly fitted or top-dose-only effect, or another doubt; inactive = no such curve, though single readings can be large or run the other way; cell line not stated here;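 further: phosphodiesterase inhibitor Ro 20-1724 added with compounds to block cAMP breakdown; potency means the concentration at half of the fitted maximal effect; nearly all actives have a fitted effect of over 60% in size; about a fifth of the inactives were tested at one dose only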
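Cells stably selected in G418 were plated at 2000/well, grown 16-24 hr, then given compounds in DMSO with the PDE inhibitor […] (300 uM solution added) for 30 min at 37C; cAMP was read by HTRF.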
D2 agonist: agonists of human D2 dopamine receptor (beta-arrestin); P14416; DiscoveRx PathHunter D2 beta-arrestin, luminescence, 90 min; 100% = 57 uM dopamine signal; activation, % (test concentration not listed); 0.084% of 360,000 active; in the data active = activation above about 40%; inconclusive = about 15% to 40%; inactive = below about 15%; further: compound concentration not given in the record; the text of the record calls up to 30% inactive
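Agonist mode: compounds alone added to overnight-plated D2 PathHunter cells for 90 min at 37 C, with 57 uM final dopamine (EC100) defining full response. Beta-arrestin recruitment detected by chemiluminescent reagent, read after 1 h at ambient temperature.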
CtBP-E1A inh: inhibitors of CtBP/E1A interaction. AlphaScreen GST-E1A/His-CtBP binding, 1536-well; active compounds read low; control for the full effect not named in the record. activity change, % (no concentration beside the values). 0.49% of 340,000 active; in the data active means activity change below about -65%; inconclusive means about -30% to -65%; inactive means above about -30%; further: on the % scale 0 is the no-effect control and ±100 the full control effect
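In 5 uL wells, 23 nL compound meets equimolar GST-E1A and His-CtBP (5X stock 125 nM each) for 2 h, 37 °C. Beads (5X, 50 ug/mL) then 1 h, 37 °C, dark.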
Six1-Eya2 blk: inhibitors of human Six1/Eya2 interaction. 0.56% of 360,000 active. AID 651725. activity change, % (concentration not given with the values). AlphaScreen GST-Six1/His-Eya2 binding, biochemical; active compounds read low; control for the full effect not named in the record; in the data active = activity change below about -65%; inconclusive = about -30% to -65%; inactive = above about -30%; further: on the % scale 0 is the no-effect control and ±100 the full control effect
Target sequence (O00167 whole entry, looked up): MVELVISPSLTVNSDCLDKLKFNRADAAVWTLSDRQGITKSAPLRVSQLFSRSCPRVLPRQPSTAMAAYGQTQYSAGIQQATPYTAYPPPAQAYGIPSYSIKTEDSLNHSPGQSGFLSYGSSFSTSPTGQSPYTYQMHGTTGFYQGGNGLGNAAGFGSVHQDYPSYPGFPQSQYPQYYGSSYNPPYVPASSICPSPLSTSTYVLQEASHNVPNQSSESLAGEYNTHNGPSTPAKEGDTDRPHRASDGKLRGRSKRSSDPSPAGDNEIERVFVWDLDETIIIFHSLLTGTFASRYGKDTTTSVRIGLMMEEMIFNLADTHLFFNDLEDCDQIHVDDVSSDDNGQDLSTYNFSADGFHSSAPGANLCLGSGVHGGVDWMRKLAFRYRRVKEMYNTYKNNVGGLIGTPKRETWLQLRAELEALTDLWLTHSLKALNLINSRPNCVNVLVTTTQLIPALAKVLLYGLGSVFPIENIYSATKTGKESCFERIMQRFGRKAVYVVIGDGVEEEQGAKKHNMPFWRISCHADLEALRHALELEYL
Target sequence (Q15475 whole entry, looked up): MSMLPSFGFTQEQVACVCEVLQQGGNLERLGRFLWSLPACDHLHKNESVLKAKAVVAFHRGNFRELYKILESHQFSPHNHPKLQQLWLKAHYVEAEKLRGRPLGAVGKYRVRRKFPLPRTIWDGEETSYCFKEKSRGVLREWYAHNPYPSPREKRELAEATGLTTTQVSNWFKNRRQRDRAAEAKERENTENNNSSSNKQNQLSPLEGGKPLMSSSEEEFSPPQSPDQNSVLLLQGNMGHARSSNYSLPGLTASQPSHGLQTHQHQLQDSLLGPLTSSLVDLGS
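Six1/Eya2 binding was read as AlphaScreen signal after compounds were pinned into GST-Six1 plus His-tagged Eya2 (5X stock 250/500 nM) in pH 8.0 Tris/NaCl/TCEP buffer, beads added, then incubated 1 h, 37 C, dark.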
D2 potentiator: human D2 receptor positive allosteric modulation. P14416. DiscoveRx D2 beta-arrestin cells, luminescence, 90 min; 100% = 57 uM dopamine signal. potentiation, % (concentration not given with the values). 0.23% of 360,000 active. AID 624464; active = potentiation of 50% or more; inconclusive = 30% to 50%; inactive = 30% or less;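 further: compound concentration not given in the record; tested on top of an EC20 dose of dopamine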
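D2 cells co-treated with compound plus 50 nM dopamine (EC20) for 90 min at 37 deg C to detect potentiation. Beta-arrestin recruitment was read as enzyme-fragment luminescence after 1 h at ambient temperature. Full response was set by 57 uM dopamine.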
gsp antagonist: antagonists of gsp mutant (McCune-Albright syndrome); gsp-mutant cells, cAMP HTRF, 30 min; control for the full effect not named in the record; AID 624288; Potency, µM (top dose mostly 76.9 µM), inactives show top-dose activity change, negative = inhibition, actives largely listed as inhibitors; 0.4% of 340,000 active; active = falling curve of any shape with a large fitted effect; inconclusive = falling curve, mostly with a smaller effect; inactive = flat or rising curve; cell line not stated here;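 further: intracellular cAMP measured with PDE inhibitor Ro 20-1724 present during compound exposure; potency means the concentration at half of the fitted maximal effect; on the % scale 0 is the no-effect control and ±100 the full control effect; nearly all actives have a fitted effect of over 65% in size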
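HTRF cAMP read-out (cAMP-d2 plus anti-cAMP antibody-K in lysis buffer, 30 min RT). Before lysis, cells are exposed to compounds with […] for 30 min at 37C in DPBS containing Ca/Mg, BSA and Tween 20.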
* hit, by the source's call; ? = inconclusive; . = not tested or not shown; [ ] = remark or other dose.

| smiles | gsp agonist | D2 agonist | CtBP-E1A inh | Six1-Eya2 blk | D2 potentiator | gsp antagonist |
| --- | --- | --- | --- | --- | --- | --- |
| CN1CCN(C(=O)/C(=C/c2ccc(F)cc2)c2ccsc2)CC1 | 1% | -5.9 | 6 | 6 | -17 | 16% |
| CCOc1ccc(C2N(c3cc(C)on3)C(=O)C3CCCN32)cc1OC (stereo not drawn) | -1% | -2.0 | 3 | 4 | -8 | 7% |
| CCOC(=O)N1CCN(Cc2nc3c(c(=O)n(C)c(=O)n3C)n2CCCc2ccccc2)CC1 | 1% | -0.5 | -14 | 1 | -9 | -11% |
| CC(Sc1ccc(Cl)cc1)C(=O)Nc1ccc2c(c1)OCO2 (stereo not drawn) | -16% | -1.6 | -1 | -1 | -25 | -21% |
| COc1ccc(CCNC(=O)CCc2ccc(OC)cc2)cc1 | ? | -1.2 | 4 | 2 | -5 | 2% |
| Cc1ccc(NC(=O)CCC(=O)OCC(=O)c2ccc(Oc3ccc([N+](=O)[O-])cc3)cc2)cc1 | -18% | -5.8 | 2 | -1 | -8 | -3% |
| OC(c1ccccc1)(c1nc(-c2cc(F)cc(F)c2)cs1)C(F)(F)F (stereo not drawn) | . | 3.4 | 7 | 4 | -9 | . |
| CC1(Cc2ccccc2OC(F)(F)F)C(=O)Nc2c(Cl)ccc(Cl)c21 (stereo not drawn) | . | -5.5 | 3 | 0 | -9 | . |
| CCn1c(CC(=O)Nc2ccccc2)nnc1SCC(=O)Nc1ccccc1C(=O)OC | -12% | 0.4 | 3 | 0 | -16 | -20% |
| O=C(N=C1SC2CS(=O)(=O)CC2N1CCc1ccccc1)C1CC1 (stereo not drawn) | -40%[inhibitor] | 3.5 | 0 | 1 | 2 | 1% |
| Cn1c(SCC(=O)N2CCCCCC2)nnc1-c1ccco1 | -7%[15.4 µM] | -1.3 | 20 | 6 | -6 | 1% |
| CC(C)(C)c1ccc(/C=C2\SC(=O)N=C2N)cc1 | 8% | 3.8 | 4 | -6 | 1 | 2% |

Fetched by compound from above, 3 records:
| smiles | gsp agonist | D2 agonist | CtBP-E1A inh | Six1-Eya2 blk | D2 potentiator | gsp antagonist |
| --- | --- | --- | --- | --- | --- | --- |
| CC(C)(C)c1ccc(/C=C2\SC(=O)N=C2N)cc1 | 8% | 3.8 | 4 | -6 | 1 | 2% |
| CC(Sc1ccc(Cl)cc1)C(=O)Nc1ccc2c(c1)OCO2 (stereo not drawn) | -16% | -1.6 | -1 | -1 | -25 | -21% |
| Cc1ccc(NC(=O)CCC(=O)OCC(=O)c2ccc(Oc3ccc([N+](=O)[O-])cc3)cc2)cc1 | -18% | -5.8 | 2 | -1 | -8 | -3% |

Further structures
| smiles | gsp agonist | D2 agonist | CtBP-E1A inh | Six1-Eya2 blk | D2 potentiator | gsp antagonist |
| --- | --- | --- | --- | --- | --- | --- |
| Cc1cc(S(=O)(=O)N2CCCOC2CNC(=O)C(=O)NCCc2ccco2)ccc1F (stereo not drawn) | 18%[15.4 µM] | 0.8 | 2 | -16 | -7 | -5% |
| O=C1CCCC/C1=C/Nc1cccc(C(F)(F)F)c1 | 27% | -2.1 | 6 | 1 | -3 | 2% |
| CS(=O)(=O)N(CC(=O)NN=C1CCCCCC1)c1ccc(Oc2ccccc2)cc1 | -1% | -5.1 | . | -10 | 3 | 8% |
| COc1ccc(S(=O)(=O)N[C@@H](C)C(=O)OCC(=O)Nc2cc3oc4ccccc4c3cc2OC)cc1 | -24% | 0.3 | -4 | -9 | -13 | -61% |
| Cc1ccc(NC(=O)CSc2nnc(Cc3csc(C)n3)o2)c(C)c1 | -24% | -3.2 | -13 | 9 | -16 | 7% |
| NC1=NC(=O)/C(=C/c2cccc(F)c2)S1 | ? | -0.7 | 1 | 0 | -6 | -1% |
| O=C(CCCCl)Nc1nc(-c2ccc3c(c2)OCCO3)cs1 | 5% | 0.2 | -1 | -5 | 1 | -10% |
| Cc1cc(C)c2nc(NNC(=O)c3ccc(S(=O)(=O)N4CCCC(C)C4)cc3)sc2c1 (stereo not drawn) | -8% | 1.2 | -22 | 15 | -1 | ? |
| O=C(Nc1ccc2c(c1)OCO2)N1CCCC1 | -10% | -2.8 | . | 7 | -3 | 2% |
| CCOC(=O)CCCCCC(=O)Nc1ccc2c(c1)CC(=O)N([C@@H](C)CO)C[C@H](C)[C@@H](CN(C)Cc1ccccc1)O2 | . | -1.3 | 3 | 23 | -10 | -15% |
| CC(C)(C)OC(=O)[C@H](Cc1ccccc1)NC(=O)c1[nH]cnc1C(=O)Nc1ccccc1F | ? | -1.8 | -3 | -17 | . | . |
| Cc1ccc(CN(c2ccc(C(=O)Nc3ccc4c(c3)OCO4)cc2)S(C)(=O)=O)cc1 | -6% | 0.5 | -22 | -13 | -9 | 6% |
| COC(=O)C1CCN(C(=O)Cc2ccc(Br)cc2)CC1 | -31%[inhibitor] | -2.9 | 4 | 5 | -13 | 5% |
| c1ccc2c(c1)nnn2Cc1nnc2sc(-c3ccncc3)nn12 | ? | -5.0 | 3 | -1 | 2 | 3% |
| Cc1ccc(CNS(=O)(=O)c2ccc(C(F)(F)F)cc2)n1C | 29% | -6.0 | . | -5 | -3 | -1% |
| Cc1ccc(NC(=O)COC(=O)c2nn(-c3ccc(Cl)cc3)cc2O)cc1 | -7%[15.4 µM] | 1.0 | 8 | 7 | -3 | -3% |
| O=S(=O)(c1ccccc1)N1CCN(CCO)CC1 | 10% | -3.7 | 2 | 0 | -1 | 3% |
| Cc1ccc(-c2nn(-c3ccc(F)cc3)cc2C(=O)N(C)CC(=O)Nc2ccc(N3CCOCC3)cc2)cc1 | 15%[15.4 µM] | -4.4 | 1 | -11 | -11 | -8% |
| CCN(CC(=O)NCc1ccc(Cl)cc1)C(=O)/C=C/c1ccco1 | 15%[15.4 µM] | -0.9 | 16 | 3 | 4 | -60% |
| Cc1nc(Sc2ccc(Cl)cc2)c(C#N)c(C)c1[N+](=O)[O-] | 0%[15.4 µM] | 4.6 | -2 | -11 | 0 | 1% |
| O=C(O)c1ccc2ncc(NC(=O)c3ccc(F)cc3)c(=O)n2c1 | 0%[15.4 µM] | 0.3 | 1 | -2 | 1 | -4% |
| O=C(Nc1ccc(F)cc1)c1ccccc1S(=O)(=O)c1ccccc1[N+](=O)[O-] | -3% | 2.3 | -3 | 4 | 9 | -9% |
| O=C(Cn1cc([N+](=O)[O-])ccc1=O)Nc1ccc2c(c1)OCO2 | -10% | -0.7 | 0 | 5 | -7 | 10% |
| COc1ccc(OCCN2CCC(C(=O)NC(c3ccc(OC)cc3)c3ccccn3)CC2)cc1 (stereo not drawn) | . | -3.5 | 1 | 5 | -13 | . |
| O=[N+]([O-])c1ccc(C[n+]2cc(-c3ccccc3)n3c2CCCCC3)cc1 | -5%[15.4 µM] | -5.3 | -14 | -2 | -4 | 5% |
| O=C(c1ccccc1)N1N=C(C(F)(F)F)CC1(O)c1ccccc1O (stereo not drawn) | 2% | -3.1 | . | 17 | -38 | -2% |
| CCOC(=O)/C(C#N)=C\c1ccc(CC)s1 | 10% | -2.8 | -3 | 6 | -1 | 2% |
| COc1ccc(-n2c(SCC(=O)c3ccc[nH]3)nnc2-c2ccccc2)cc1 | 8% | -1.9 | 18 | 5 | 2 | 1% |
| CC(C)Cn1cnc2c(SCc3ccc(Cl)cc3)nc(N)nc21 | -45%[inhibitor] | 3.8 | 5 | 0 | -4 | 8% |
| COCCN1C(=O)C(=O)/C(=C(/O)c2ccc(S(=O)(=O)N3CCOCC3)cc2)C1c1ccc(OC)c(OC)c1 (stereo not drawn) | -6% | -3.0 | 2 | 2 | -17 | 8% |
| Cc1cccc2cc(/C=N/Nc3ccc(C(=O)O)cc3)c(Cl)nc12 | 40% | -1.4 | 4 | -7 | -7 | -12% |
| Cc1ccc(C(=O)Oc2ccccc2N2C(=O)C3C4CCC(C4)C3C2=O)cc1 (stereo not drawn) | 0% | -5.5 | 9 | -1 | -10 | -7% |
| Cc1cc(Br)c(NC(=O)c2c(-c3c(Cl)cccc3Cl)noc2C)c(Br)c1 | 8% | -2.1 | . | 2 | -8 | -7% |
| CC(C)(C)NC(=O)C(=O)NCc1ccncc1 | -36%[inhibitor] | 3.6 | . | 6 | 2 | 9% |
| Cc1cc(C)cc(NC(=O)c2ccc(S(=O)(=O)C(F)F)cc2)c1 | 5%[15.4 µM] | -4.2 | -25 | 3 | -5 | -7% |
| COc1ccc(Cc2nnc(NC(=O)c3cc(OC)c(OC)c(OC)c3)s2)cc1 | 8% | 4.1 | -16 | 0 | -1 | 6% |
| CCC(NC(=O)c1ccccc1NC(=O)C(C)(C)C)C(=O)N1CCCC1 (stereo not drawn) | -12%[15.4 µM] | -1.6 | 1 | 10 | -1 | 8% |
| CN(CC(=O)Nc1ccccc1Br)C(=O)c1cc([N+](=O)[O-])ccc1N1CCOCC1 | -19% | -6.9 | 0 | -6 | -37 | 1% |
| Cn1c(=O)c2c(nc(SCC(=O)c3cccs3)n2Cc2ccc(F)cc2)n(C)c1=O | 5% | 0.5 | 0 | -1 | 0 | 10% |
| CCC1(CC)NC(=O)N(CC(=O)N2CCN(S(=O)(=O)c3cccc(F)c3)CC2)C1=O | -46% | -0.7 | 9 | 1 | 4 | 16% |
| O=C(CSc1nnc(CNC(=O)c2c(F)cccc2F)o1)c1ccccc1 | -8% | 1.9 | -7 | 7 | 14 | 1% |
| Cc1nnc(SCC(=O)NC2CCCCCC2)n1C | -10% | -1.1 | 5 | -1 | -6 | 11% |
| Cc1ccc(C(=O)COC(=O)CCC(=O)Nc2ccccc2Cl)cc1[N+](=O)[O-] | 7% | -12 | 1 | 13 | -43 | 6% |
| CCOC(=O)CCC(NC(=O)CCCCCCCCC(=O)NC(CCC(=O)OCC)C(=O)OCC)C(=O)OCC (stereo not drawn) | 8% | -1.5 | 1 | 4 | -7 | 11% |
| CC(=O)Nc1ccc(S(=O)(=O)Nc2nnc(Cc3ccc(Cl)cc3)s2)cc1 | -4%[15.4 µM] | -14 | -2 | -27 | -6 | 11% |
| C[C@H](NC(=O)C1CCN(C(=O)[C@H](Cc2ccccc2)NC(=O)OC(C)(C)C)CC1)C(=O)O | ? | -2.6 | 9 | 3 | -3 | 0% |
| COc1ccc(-c2nnc(SCC(=O)N3CCCCC3)o2)cc1 | -6% | 5.0 | 4 | 8 | 3 | 0% |
| COc1ccc(C)cc1S(=O)(=O)N(CC(=O)N1CCOCC1)Cc1ccccc1 | -7% | -2.5 | 6 | -1 | -19 | 2% |
| O=C(COC(=O)CCN1C(=O)c2ccccc2C1=O)Nc1ccc(S(=O)(=O)N2CCCC2)cc1 | ? | -3.3 | 2 | 3 | -1 | 11% |
| CN(C)C(CNC(=O)c1ccc2ccccc2n1)c1ccccc1 (stereo not drawn) | 20%[15.4 µM] | -1.9 | 3 | 0 | -13 | -9% |
| CCN(CC(=O)NC1CCS(=O)(=O)C1)S(=O)(=O)c1cc(Br)ccc1Br (stereo not drawn) | 0% | 6.9 | -7 | 24 | 0 | 21% |
| COc1ccc(/C=N/NC(=O)C(=O)N2CCCC2)cc1OC | -2%[15.4 µM] | 7.3 | -3 | 4 | 23 | 0% |

Screens from PubChem.
